Source: PubChem (ICCB-Longwood Screening Facility, Harvard Medical School)
Sa growth 42C: S. aureus growth inhibition at 42 and 30 °C, primary screen, LtaS inhibitor project, RN4220, two temperatures. relative growth, % (concentration not given with the values). OD600, 20 h, 42 °C; stronger effect = lower value. AID 720641, 2013. 170,000 tested, 0.53% active;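 active means growth at 42 °C up to 50% and 20 or more points under that at 30 °C, or under 10% at both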;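 further: 300 nL library stock went into each well; scaled to the means of positive and negative controls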
GIV-Gai inh: inhibitors of GIV peptide binding to Galpha-i3, primary screen, biochemical, fluorescence polarization, FITC-GIV GBA peptide, rat Galphai3; percent of control (FP), % (no concentration beside the values); Guanine nucleotide-binding protein G(i) subunit alpha-3 (Rattus norvegicus), P08753; 90 min; stronger effect = lower value; scaled: aluminum fluoride 0%, vehicle 100%; AID 1224905, 2016; 210,000 tested, 0.42% active;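 active means replicate mean at 85% of control or lower, very high polarization wells dropped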;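 further: wells of about 15 µL received 100 nL stock; the first replicate is given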
Target sequence (P08753 whole entry, looked up): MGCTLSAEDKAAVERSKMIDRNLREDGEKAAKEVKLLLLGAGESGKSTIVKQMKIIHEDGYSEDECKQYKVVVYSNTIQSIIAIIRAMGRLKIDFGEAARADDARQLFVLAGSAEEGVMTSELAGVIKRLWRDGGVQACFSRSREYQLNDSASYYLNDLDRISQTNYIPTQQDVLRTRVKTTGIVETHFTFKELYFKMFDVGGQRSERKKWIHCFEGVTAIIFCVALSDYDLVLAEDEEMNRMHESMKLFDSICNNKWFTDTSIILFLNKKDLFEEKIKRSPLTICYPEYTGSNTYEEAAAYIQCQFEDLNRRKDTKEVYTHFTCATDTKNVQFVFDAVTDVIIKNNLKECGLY
HCMV UL50-53 inh: inhibitors of HCMV UL50-UL53 interaction, biochemical, HTRF; HCMV UL50-UL53 nuclear egress complex (human cytomegalovirus); normalized percent inhibition; inhibition, % (no concentration beside the values); 190,000 tested, 0.15% active; AID 1918969, 2023;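 active means both replicates at 50% or more, plus weaker picks with an unusually low signal ratio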;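 further: stock transfer was 100 nL into about 20 µL; 0% = negative control wells and 100% = wells with untagged competitor protein; inactives centre near -12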
Sa growth 42C second temp: further read-out of Sa growth 42C, marked with its call; relative growth, %; measured here: growth at 30 °C;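 optical density after 20 h as mean of two plates; 100% = untreated growth and lower means inhibition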
Numbers without * were called inactive; . = no result given; & = joins results of further samples.

mol | Sa growth 42C second temp | HCMV UL50-53 inh | Sa growth 42C | GIV-Gai inh
N#Cc1cc2c(nc1SCC(=O)Nc1ccc(F)cc1)CCCC2=O | 97 | -14 | 112 | 108
COC(=O)c1ccc(CSc2ccc3nnc(-c4ccccc4)n3n2)o1 | 92 | -2 | 116 | 104
CCOc1ccc(NC(=O)CC2C(=O)NCCN2C(=O)c2ccccc2)cc1 (stereo unspecified) | 91 | -19 | 98 | 100
Cc1nnc(SCCCn2c(N3CC(C)OC(C)C3)nc3c2c(=O)[nH]c(=O)n3C)s1 (stereo unspecified) | 97 | 1 | 103 | 102
CCOC(=O)N1CCC(NC(=O)Cn2ncc3c(=O)oc4ccccc4c32)CC1 | 86 | -22 | 83 | 113
COc1ccc(C)cc1NC(=O)N1CCN(C(=O)Cc2csc3ccccc23)CC1 | . | 14 | . | 103
CCOC(=O)c1c(S(=O)(=O)N2CCCC(C(=O)NCc3ccccc3Cl)C2)c(C)n(C)c1C (stereo unspecified) | 101 | . | 98 | 107
O=C(Nc1cccc2nsnc12)c1nc2ccccc2nc1N1CCOCC1 | . | -26 | . | 28*
N#C/C(=C/c1ccc2c(c1)OCO2)c1ccc(Cl)cc1Cl | 90 | -10 | 91 | .
Cc1ccc(-c2cc(-c3coc4ccccc4c3=O)c3c(n2)-c2cc(Cl)ccc2OC3)cc1 | 94 | 1 | 117 | 103
Cc1ccc2c(c1)NC(C(F)(F)F)(C(F)(F)F)NC2=O | 83 | . | 127 | 101
N#CCc1ccc(NC(=O)CCCC(=O)O)cc1 | 87 | -2 | 101 | 99
Cc1cccc2c1-c1sc(C(=O)N(CCN(C)C)Cc3ccco3)cc1CO2 | 84 | -10 | 106 | 99
CCC(=O)Oc1cc(C(C)(C)C)cc2cc(-c3nc(-c4ccc(OC)cc4OC)no3)c(=O)oc12 | 98 | . | 122 | 109
CCOc1ccc(OCC)c(NC(=O)C2(S(=O)(=O)c3ccc(Cl)cc3)CC2)c1 | 88 | -6 | 100 | 104

mol | Sa growth 42C second temp | HCMV UL50-53 inh | Sa growth 42C | GIV-Gai inh
Cc1nccc2[nH]c(=O)c(C(=O)NC(C)CCc3ccccc3)cc12 (stereo unspecified) | 81 | . | 82 | 106
Cc1ccccc1NC(=O)CC(C(=O)O)N(C)C (stereo unspecified) | 91 | . | 101 | 95
CCCn1c(=O)n(C)c(=O)c2c(SCC(=O)NCC3CCCO3)nc(C(C)(C)C)nc21 (stereo unspecified) | 94 | -11 | 74 | .
CCOCCCNC(=O)c1cc2c(-c3ccc(OC)c(OC)c3)nn(C)c2s1 | 81 | -21 | 110 | 110
NC(=O)N/N=C1/C=C(c2ccccc2)C(O)(c2ccccc2)C1 (stereo unspecified) | 91 | -60 | 109 | .
COc1ccc(C(NC(=O)c2ccccc2)c2ccc3cccnc3c2O)cc1 (stereo unspecified) | 85 | -16 | 86 | 98
C=CCNC(=O)C1CC(=O)N(c2ccc(OCC(=O)N3CCCC3)cc2)C1 (stereo unspecified) | 84 | -14 | 96 | .
COC1(C(F)(F)F)NC(=O)N(c2ccc(F)cc2)C1=O (stereo unspecified) | 88 | -11 | 84 | 101
C=CCSc1nc2c(c(=O)[nH]1)C(c1ccccc1)C1=C(CCCC1=O)N2 (stereo unspecified) | 90 | -31 | 84 | 105
Oc1ccccc1-c1cc(-c2ccccc2O)nc(-c2ccccc2)n1 | 89 | 5 | 79 | .
O=C1CCCN1CCCNc1nc(-c2ccccc2)no1 | 91 | -28 | 99 | 102
CC1(C)S[C@@H]2[C@H](NC(=O)[C@@H](N)c3ccc(O)cc3)C(=O)N2[C@H]1C(=O)O | -0.9* | -13 | -0.4* | .
CCn1cc(S(=O)(=O)c2ccccc2)c(=O)c2cc(F)c(N3CCCC3)cc21 | 100 | . | 96 | 110
Cc1cc(C)c2c(-n3cccc3)c(C(=O)O)sc2n1 | 101 | -2 | 95 | 105
Cc1ccc(OCC(=O)Nc2cc(-c3nc4ccccc4[nH]3)ccc2C)c(C)c1 | 92 | 1 | 83 | 103

Part of the list above, with two lines to a compound:
Results follow in this order: Sa growth 42C second temp | HCMV UL50-53 inh | Sa growth 42C | GIV-Gai inh
- COC1(C(F)(F)F)NC(=O)N(c2ccc(F)cc2)C1=O (stereo unspecified)
→ 88 | -11 | 84 | 101
- Cc1nccc2[nH]c(=O)c(C(=O)NC(C)CCc3ccccc3)cc12 (stereo unspecified)
→ 81 | . | 82 | 106

Other compounds:
mol | Sa growth 42C second temp | HCMV UL50-53 inh | Sa growth 42C | GIV-Gai inh
COc1cccc(CNC(=O)C(NS(=O)(=O)c2ccc3nc(C)sc3c2)C(C)C)c1 (stereo unspecified) | 83 | -32 | 103 | 101
CC(=O)SC1CC(=O)N(c2ccc(C(F)(F)F)cc2)C1=O (stereo unspecified) | 67 | -39 | 66 | 100
CC(C)Oc1ccc(CNC(=O)C2CCCN(S(=O)(=O)N(C)C3CCCCC3)C2)cc1 (stereo unspecified) | 95 | -27 | 87 | 103
O=C(CSc1nccn2nc(-c3ccc(F)cc3)cc12)Nc1ccc(Br)cc1 | . | 17 | . | 102
Cc1ccc(OCc2nc(-c3ccc(C(=O)N4CCN(c5ccc(Cl)cc5)CC4)cc3)oc2C)cc1 | 96 | -11 | 105 | 100
Cc1c(C)n(CC(O)CNC(C)(C)C)c2ccccc12 (stereo unspecified) | 93 | 1 | 94 | 107
NS(=O)(=O)c1ccc(CCNC(=O)CSc2ccc3c(c2)OCCO3)cc1 | 93 | 6 | 100 | .
COCCn1c(SCc2ccncc2)nc2ccccc2c1=O | 80 | -10 | 101 | 107
CNC(=S)NCCCN1CCN(c2ccc(F)c(Cl)c2)CC1 | 102 | 2 | 96 | 107
COc1ccccc1CNC(=O)CSC1=NCCS1 | 94 | -12 | 90 | .
Nn1cnc2ccccc2c1=O | 93 | -27 | 96 | .
CC(=O)N1CCN(C(=O)c2nn(Cc3ccccc3)c(=O)c3ccccc23)CC1 | 96 | -12 | 101 | .
COc1ccccc1NC(=O)Nc1cc2c(cc1N1CCOCC1)n(C)c(=O)n2C | . | -11 | . | 99
O=C1c2ccccc2C(=O)N1CCC1=NCCc2ccccc21 | 89 | . | 97 | 101
Cc1ccc(NC(=O)C2(c3ccccc3)CCCC2)nc1 | 87 | -9 | 78 | .

mol | Sa growth 42C second temp | HCMV UL50-53 inh | Sa growth 42C | GIV-Gai inh
Cc1noc(C)c1CCC(=O)Nc1ccc(Br)cc1Cl | 99 | 3 | 109 | .
CC(C)CCC1(C)NC(=O)N(CC(=O)c2ccc[nH]2)C1=O (stereo unspecified) | 100 | -19 | 72 | .
Cc1sc(-n2cccc2)c(C(=O)O)c1C | 65 | 2 | 94 | .
CC(C)(C)C(=O)Nc1cc(C(F)(F)F)ccc1-n1ccnc1 | 79 | -35 | 109 | .
CN(C)c1ccc(N/C=C(\C#N)c2nc3ccccc3[nH]2)cc1 | 70 | 3 | 109 | 120
Cc1cc(C(F)(F)F)c2c(C)nn(CCc3nn[nH]n3)c2n1 | 85 | -12 | 84 | .
Cc1ccccc1N(C(=O)CCc1c(C)noc1C)c1nc2ccccc2s1 | 75 | -16 | 108 | .
CC(C)(C)c1cc(C(=O)NCc2ccco2)ccn1 | 91 | -11 | 108 | 102
CS(=O)(=O)N(CCC(=O)O)Cc1ccccc1 | 96 | -20 | 109 | 106
O=C(Cn1nc(Cc2cccnc2)c2ccccc2c1=O)N1CCCC1 | 87 | . | 111 | 98
COc1cc(C2C(C#N)=C(N)OC3=C2C(=O)CC(C)(C)C3)ccc1OCC(N)=O (stereo unspecified) | . | -26 | . | 96
O=C(CSc1cccc(-c2ccccc2)n1)c1cccs1 | 90 | -18 | 96 | .
Cc1nc2[nH]n(-c3ccccc3)c(=O)c2c(C)c1CCC(=O)Nc1ccccc1 | 89 | -53 | 103 | 105
CCCNC(=O)c1ccc(Cn2c(=O)c3cccn3c3cccnc32)cc1 | 99 | . | 98 | 108
O=C(c1ccc2sc(=S)[nH]c2c1)N1CCCC1 | 57 | -6 | 77 | .

mol | Sa growth 42C second temp | HCMV UL50-53 inh | Sa growth 42C | GIV-Gai inh
Cc1cc(C)n(C(=O)NC2CCCCC2)n1 | 91 | -6 | 86 | .
CC1S/C(=C\c2nc3ccccc3s2)NC1=O (stereo unspecified) | 92 | -38 | 105 | .
O=C(O)CCc1c(C(=O)O)[nH]c2cc(Cl)cc(Cl)c12 | 114 | -3&-22 | 108 | 100
Nc1c(C(=O)c2ccc(Cl)s2)sc2c1c(=O)[nH]c(=O)n2Cc1cccs1 | 92 | -31 | 96 | .
COc1ccc(CCNC2CC(=O)N(C3CCCCC3)C2=O)cc1OC (stereo unspecified) | 108 | 3 | 113 | 104
Cc1ccc2[nH]c(O)c(N=NC(=O)Cc3cn4ccsc4n3)c2c1 | 89 | -58 | 105 | .
Cc1cccc(C)c1NC(=O)CCCN1C(=O)CCn2nc(-c3cn(C)c4ccccc34)cc21 | 88 | . | 101 | 105
CCOC(=O)C1=C(C)NC(C)=C(C(=O)OC)C1c1ccc(Cl)cc1 (stereo unspecified) | . | -6 | . | 104
O=C(COc1ccccc1-c1nc(-c2ccccc2)no1)Nc1ccccc1F | . | 16 | . | 99
Oc1c(/C=C2\C=Nc3ccccc32)sc(=Nc2ccccc2)n1C1CCCC1 | 94 | -3 | 108 | .
Cc1ccc(-n2ccnc2SCC(=O)NC(=O)C2COc3ccccc3O2)c(C)c1 (stereo unspecified) | 94 | -26 | 78 | .
O=C1CSC(CS(=O)(=O)Cc2cccc(C(F)(F)F)c2)=N1 | 79 | 2 | 102 | 97
CC(CC(=O)NC1CCCC1)CC1=NS(=O)(=O)c2ccccc2N1 (stereo unspecified) | 85 | -18 | 99 | 106
Cc1ccc2ccc3cc(C(=O)N4CCC(N5CCCCC5)CC4)nc3c2[nH]1 | . | 2 | . | 104
COc1cccc(/C=N/c2nnc(C)s2)c1O | 95 | -20 | 87 | 100

mol | Sa growth 42C second temp | HCMV UL50-53 inh | Sa growth 42C | GIV-Gai inh
Cc1ccccc1-c1nn[nH]n1 | 90 | -17 | 99 | .
CC(C#N)Sc1nnc2ccccn12 (stereo unspecified) | 90 | -38 | 89 | .
Cc1ccc(-c2nnc3sc(C4=Cc5ccccc5OC=C4)nn23)cc1 | . | -4 | . | 106
Cn1c(=O)n(C)c2cc(N3CCCCC3)c(NC(=O)c3ccc(Cl)cc3)cc21 | 96 | -3 | 108 | 102
Cn1c(C2CC2)nc2ccccc21 | 95 | . | 98 | 106
CCOCCn1c(=NC(=O)C(C)C)sc2cc(C)ccc21 | 78 | -28 | 85 | 102
O=C(CN1C(=O)c2ccc(Br)cc2C1=O)OC1CCCCC1 | 89 | -11 | 100 | .
CCN1C(=O)N(CC)C2NC(=O)NC21 (stereo unspecified) | 95 | -2 | 98 | 107
CN(CCc1ccccn1)C(=O)c1nn2c(C(F)(F)F)cc(-c3ccco3)nc2c1Cl | 100 | -67 | 89 | 101
CCNC(=O)c1cccc2c1-c1ccccc1C2=O | 97 | -81 | 99 | 110
COC(=O)c1ccccc1NC(=O)COC(=O)c1cc2ccccc2o1 | 80 | . | 82 | 110
Cc1cc(C)cc(-n2ccn3c(CCC(=O)O)nnc3c2=O)c1 | 90 | -16 | 86 | 102

Structures listed so far with fluorine, in the order listed:
mol | Sa growth 42C second temp | HCMV UL50-53 inh | Sa growth 42C | GIV-Gai inh
N#Cc1cc2c(nc1SCC(=O)Nc1ccc(F)cc1)CCCC2=O | 97 | -14 | 112 | 108
Cc1ccc2c(c1)NC(C(F)(F)F)(C(F)(F)F)NC2=O | 83 | . | 127 | 101
COC1(C(F)(F)F)NC(=O)N(c2ccc(F)cc2)C1=O (stereo unspecified) | 88 | -11 | 84 | 101
CCn1cc(S(=O)(=O)c2ccccc2)c(=O)c2cc(F)c(N3CCCC3)cc21 | 100 | . | 96 | 110
CC(=O)SC1CC(=O)N(c2ccc(C(F)(F)F)cc2)C1=O (stereo unspecified) | 67 | -39 | 66 | 100
O=C(CSc1nccn2nc(-c3ccc(F)cc3)cc12)Nc1ccc(Br)cc1 | . | 17 | . | 102
CNC(=S)NCCCN1CCN(c2ccc(F)c(Cl)c2)CC1 | 102 | 2 | 96 | 107
CC(C)(C)C(=O)Nc1cc(C(F)(F)F)ccc1-n1ccnc1 | 79 | -35 | 109 | .
Cc1cc(C(F)(F)F)c2c(C)nn(CCc3nn[nH]n3)c2n1 | 85 | -12 | 84 | .
O=C(COc1ccccc1-c1nc(-c2ccccc2)no1)Nc1ccccc1F | . | 16 | . | 99
O=C1CSC(CS(=O)(=O)Cc2cccc(C(F)(F)F)c2)=N1 | 79 | 2 | 102 | 97
CN(CCc1ccccn1)C(=O)c1nn2c(C(F)(F)F)cc(-c3ccco3)nc2c1Cl | 100 | -67 | 89 | 101
